High-throughput results: PubChem, National Center for Advancing Translational Sciences (NCATS)
VDR inhibitor = vitamin D3 receptor (human) inhibition. P11473. VDR-SRC2-3 peptide fluorescence polarization, 2 h. Potency, µM, for the others: max response, negative = inhibition, most hits filed as inhibitors. actives 0.93% (n = 400,000). AID 504847; active = well fitted inhibition curve with a large enough effect; inconclusive = small, poorly fitted or top-dose-only effect, or another doubt; inactive = no such curve, though single readings can be large or run the other way; also: series mostly up to about 120 µM
Target sequence (P11473 whole entry, looked up): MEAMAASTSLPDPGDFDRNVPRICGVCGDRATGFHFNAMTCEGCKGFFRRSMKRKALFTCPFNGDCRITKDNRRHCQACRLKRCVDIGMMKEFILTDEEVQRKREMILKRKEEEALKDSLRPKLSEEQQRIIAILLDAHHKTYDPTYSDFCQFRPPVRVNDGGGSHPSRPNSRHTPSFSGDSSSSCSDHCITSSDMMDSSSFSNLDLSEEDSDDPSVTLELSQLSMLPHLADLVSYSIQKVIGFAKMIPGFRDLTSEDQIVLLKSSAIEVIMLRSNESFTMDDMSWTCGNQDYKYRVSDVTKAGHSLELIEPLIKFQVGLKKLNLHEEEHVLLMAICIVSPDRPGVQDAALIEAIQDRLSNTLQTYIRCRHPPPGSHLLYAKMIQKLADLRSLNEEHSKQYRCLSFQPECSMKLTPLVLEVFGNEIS
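Signal is fluorescence polarization, reporting how far test compounds block the interaction of VDR with the SRC2-3 coregulator peptide after a 2 h room-temperature incubation.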
The depositor's hits bear a star; ? = inconclusive; & = joins results of further samples. % is scaled to controls: 0 for no effect and ±100 for the full control effect; potency is read from the fitted curve at half-maximal effect. This is a subset; rates above refer to the full screens.

canonical_smiles | VDR inhibitor
Nc1ncnc(Nc2c(F)cccc2F)n1 | -10%
CCc1cc2c(cc3c(=O)n(CC(=O)NC4CCCCC4)nc(CC)n32)s1 | 13%
CCCCCCOc1cccc(N)c1 | -4%
CCN(CC)C(=N)/C(C#N)=N/Nc1ccc(C)cc1 | -6%
Cn1c(=O)c(=O)n(C)c2cc(S(=O)(=O)Nc3ccc(Cl)c(C(F)(F)F)c3)ccc21 | -7%
CCOC(=O)N1CCN(Cc2cc(Cl)c3cccnc3c2O)CC1 | 9%
COc1ccc(CCNC(=O)CSC2=Nc3ccccc3C3=NC(CCC(=O)NCc4ccccc4)C(=O)N23)cc1OC (centres undefined) | 19%
C#CCOCCOCCOCCNc1nc(N2CCN(C(=O)[C@H](CCCCN)n3cc([C@@H](N)C(C)CC)nn3)CC2)nc(N2CCN(C(=O)[C@H](CCCCN)n3cc([C@@H](N)CC(C)C)nn3)CC2)n1 (some centres undefined) | 9%
CC(=O)Oc1ccccc1C(=O)Nc1ccccc1C(=O)N1CCCC1 | 17%
NC(=S)N/N=C/c1cn(CCC(=O)O)nc1-c1cccc(Br)c1 | -5%
CC1(C)Cc2c(sc(NC(=O)c3ccc(S(=O)(=O)N4CCCCCC4)cc3)c2C(N)=O)C(C)(C)N1 | -3%
CCOc1ccc(N(CC(=O)NCCSCc2ccco2)S(=O)(=O)c2ccc(F)cc2)cc1 | -4%
Cc1nc(SCC(=O)N2CCCC2=O)nc(C)c1C | -20%
COc1ccc(-n2c(C)cc(/C=N/Nc3nnc(C)n3N)c2C)cc1 | ?
COc1ccc(NC(=O)c2c[nH]n3c(=O)cc(C4CCN(C(=O)OC(C)(C)C)CC4)nc23)cc1Cl | -9%
COc1cc(C2C3=C(CCCC3=O)OC3=C2C(=O)CCC3)ccc1OCC(=O)Nc1ccccc1 | 1%
COC(=O)N1CCC[C@@]2(CCN(c3ccccn3)C2)C1 | ?
COc1ccc(Oc2ccc(C(F)(F)F)cc2NC(=O)c2ccc(OC)cc2)cc1 | -21%
S=C(NCC1CCCO1)N1CCc2ccccc2C1 (centres undefined) | 21%
COC(=O)c1[nH]c2ccccc2c1NC(=O)C(C)N1CC(C)OC(C)C1 (centres undefined) | 12%
COc1cccc(CN2CC(C(=O)NC3CCCCCC3)CCC2=O)c1 (centres undefined) | -5%
CCn1c(SCC(=O)Nc2nc3ccc(OC)cc3s2)nnc1-c1ccoc1C | 8%
O=C(NCCCN1CCOCC1)c1ccc(CS(=O)(=O)c2ccc(Br)cc2)o1 | -7%
CC1CCN(CC2CCN(C(=O)NCc3ccccc3)CC2)CC1 | 7%
CC12CN3CC(C)(CN(C1)C3c1ccc([N+](=O)[O-])o1)C2=O (centres undefined) | -12%

Reformatted: entries from further up
CCN(CC)C(=N)/C(C#N)=N/Nc1ccc(C)cc1
- VDR inhibitor = -6%

Cn1c(=O)c(=O)n(C)c2cc(S(=O)(=O)Nc3ccc(Cl)c(C(F)(F)F)c3)ccc21
- VDR inhibitor = -7%

CCOC(=O)N1CCN(Cc2cc(Cl)c3cccnc3c2O)CC1
- VDR inhibitor = 9%

(next part)
canonical_smiles | VDR inhibitor
COc1ccc(C2=NN(C(=O)c3cccs3)C(c3ccc(OC)cc3)C2)cc1 (centres undefined) | 7%
Cc1cc(-c2ccccc2)nn1-c1nc2c(c(=O)[nH]c(=O)n2C)n1C | -4%
Cc1c(Cl)ccc2sc(NC(=O)c3ccco3)nc12 | -6%
COc1cccc(CC(=O)OCC(=O)NNC(=O)c2ccc([N+](=O)[O-])cc2)c1 | 3%
CCOc1ccc(CCNC(=O)c2ccc3nc(N4CCOCC4)sc3c2)cc1OCC | 3%
CC(=O)N1CCc2cc(S(=O)(=O)NC(Cc3ccccc3)C(=O)Nc3cc(C)ccc3C)ccc21 (centres undefined) | -9%
O=C(O)C1CC=CCC1C(=O)NNc1c(Cl)cc(Cl)cc1Cl (centres undefined) | 12%
CCOc1ccc(NC(=O)c2cc3nc(-c4ccc(OC)cc4)cc(C(F)(F)F)n3n2)cc1 | 7%
COC(=O)c1sc(S(=O)(=O)N2CCCCC2)c(C(=O)OC)c1C | -11%
CCCCCCCOC(=O)C1=C(C)Nc2ncnn2C1c1cccs1 (centres undefined) | 10%
COC(c1ccccc1)c1nnc(CCC(=O)NC2C3CC4CC(C3)CC2C4)o1 (centres undefined) | -17%
Cc1ccc(S(=O)(=O)NC2(C(F)(F)F)NC(=O)N(Cc3ccccc3)C2=O)cc1 (centres undefined) | -16%
COc1ccc(C(=O)OCC(=O)NC(C)CCc2ccccc2)c(OC)c1 (centres undefined) | 8%
CSc1ccc(Cl)c(C(=O)Nc2ccc(C)cn2)c1 | -3%
O=C(NCC(c1ccco1)N1CCc2ccccc2C1)c1ccc(Cl)c([N+](=O)[O-])c1 (centres undefined) | -6%
CCc1ccc(/C=N/NC(=S)NCCc2ccccc2)cc1 | 6%
CCN(CC)C(=O)C1=C(C)Nc2nc3ccccc3n2C1c1cccc(OC)c1 (centres undefined) | 7%&9%
CC1=CC(=O)O[C@@H]1[C@@]1(C)C[C@H]2OC(=O)C[C@H]3[C@@H](C)C(=O)C(O)=C1[C@@]23CO | -2%
O=C(Cn1c(C(F)(F)F)nc2ccccc21)c1ccc(F)cc1 | -2%
c1ccc(-n2c(SCC3CCCCO3)nnc2-c2cccs2)cc1 (centres undefined) | -4%
COc1cc2c(cc1NS(=O)(=O)c1cccc(C#N)c1)n(C)c(=O)n2C | 6%
CCN(CC)C(=O)CSc1nc2sc3c(c2c(=O)n1CCCOC)CCC3 | ?
Cc1ccc2c(c1)N(C(=O)CCC(=O)O)CCO2 | -7%
CCOC(=O)N1CCN(C(=O)c2ccc(CS(=O)Cc3ccc(C)cc3)o2)CC1 (centres undefined) | -8%
CCN(CC)C(=O)Cn1cc(C(=O)C(=O)N2CCN(Cc3ccccc3)CC2)c2ccccc21 | -13%
COc1cccc(CN(CC(=O)NCC2CCCO2)C(=O)CNS(=O)(=O)c2ccccc2)c1 (centres undefined) | -16%
O=C(Nc1ccc(Cl)c(Cl)c1)Nc1nnc(CSc2ccccc2)s1 | -8%
CC(=O)c1c(C)[nH]c(C(=O)OCC(=O)Nc2ccc3[nH]c(=O)[nH]c3c2)c1C | 5%
Clc1ccc(-c2csc(NNC3=NCCCCC3)n2)cc1 | 50µM*
CCCn1c(NCc2ccccn2)nc2ccccc21 | -16%
Cc1ccc(NC(=O)[C@H](NC(=O)[C@@H]2Cc3ccccc3CN2)c2ccccc2)cc1C | -10%
CCC(CC)CN1CCC(CN2CCNC(=O)C2=O)CC1 | -6%
COc1ccc(NC(=O)c2nc[nH]c2C(=O)N[C@@H](CC(C)C)C(=O)OC(C)(C)C)cc1 | -15%
O=C(Nc1ccc(F)cc1F)Nc1ccccc1C(=O)NCCN1CCNC1=O | 8%
Cc1ccc(-n2c(SCC(=O)N/N=C/c3ccc(C)s3)nnc2-c2ccccc2)cc1 | 3%
CC(=O)Nc1ccc(S(=O)(=O)N2CCN(c3nc(NC4CCCC4)c4ccccc4n3)CC2)cc1 | 14%
CCCS(=O)(=O)c1nc(S(=O)(=O)c2ccc(C)cc2)c(NC)s1 | 8%
COC(=O)c1c(-c2cccs2)csc1NC(=O)COc1c(C)ccc(C)c1C | 22µM*
Cc1ccc(C(=O)Nc2nc(-c3ccccn3)cs2)o1 | 1%
Oc1c(Cl)cc(Cl)cc1Sc1cc(Cl)cc(Cl)c1O | 28µM*
CC(C)N(CCCNC(=O)Cn1ncc2c([nH]c3ccccc32)c1=O)Cc1ccccc1 | -10%&4%
COc1ccccc1Nc1nc2nonc2nc1N1CCC(C)CC1 | -2%
CCCCN1C(=O)C(=O)N(CC(=O)Nc2ccccc2C(C)=O)C1=O | 18%
CC(=O)Nc1ccc(NC(=O)CSc2nc3ccccc3nc2N2CCCCC2)cc1 | 8%&1%
NC(=O)NCC12CC3CC(CC(C3)C1)C2 | -4%
COc1ccc(CC(=O)Nc2c(C(N)=O)oc3ccccc23)cc1OC | -14%
Cc1c(C(=O)N(Cc2ccc(N(C)C)cc2)CC2CCCO2)oc2ccc(Br)cc12 (centres undefined) | 13%
COc1cc(NC(=O)c2ccc(S(=O)(=O)N(C)c3ccccc3OC)cc2)cc(OC)c1 | 14%
C=C(C)CN(Cc1ccccc1)C(=S)Nc1ccccc1 | 16%
COc1ccc(C2NC(=O)NC(O)(C(F)(F)F)C2C(=O)c2ccc(F)cc2)cc1 (centres undefined) | -13%

The listing continues:
Compound | VDR inhibitor
Cc1ccc2c(COC(=O)c3ccc(NC(=O)CC#N)cc3)cc(=O)oc2c1C | -8%
Cc1ccc(NC(=O)C2COc3ccccc3O2)cc1S(=O)(=O)N1CCOCC1 (centres undefined) | -9%
O=C(NCc1ccc(Cl)cc1)c1ccc(Cl)cc1[N+](=O)[O-] | -11%
CCc1ccc(N2CCn3c2nc2c3c(=O)n(CCCc3ccccc3)c(=O)n2C)cc1 | -5%
CC(=O)NCC(=O)N1CCCC(C(=O)c2ccc(-c3ccccc3)c(F)c2)C1 (centres undefined) | -1%
O=C(N=C1SC2CS(=O)(=O)CC2N1Cc1ccc(Cl)cc1)C1CCCO1 (centres undefined) | -12%
CC(Sc1nnc(NC2CCCCC2)s1)C(=O)N1CCOCC1 (centres undefined) | -11%
CS(=O)(=O)N1CCN(C(=O)c2c(F)cccc2F)CC1 | 1%
COc1ccc(CCNS(=O)(=O)c2ccc3c(c2)c(=O)n(C)c(=O)n3C)cc1OC | 6%
COc1cccc(CNC(=O)Cc2ccc(NC3=NC4CS(=O)(=O)CC4S3)cc2)c1 (centres undefined) | -13%
Cc1ccc2c(Cl)cc(Cl)c(OCc3c(C)noc3C)c2n1 | 13%
CC1=C(C(=O)N2CCc3ccccc32)C2(CCC(C)CC2)OC1=O (centres undefined) | -10%
O=C(Nc1cccc(OCc2cc(=O)n3ccccc3n2)c1)c1ccccc1Br | 3%
COCCOC(=O)C1=C(C)N(Cc2ccccc2)C(=O)NC1c1ccc(OC)cc1 (centres undefined) | 8%
CC1CN(CCC(=O)Nc2ccc3c(c2)OCO3)CC(C)O1 (centres undefined) | 11%
C=CCOC(=O)/C(=C\c1ccc(OC)cc1)NC(=O)c1ccco1 | -6%
O=C(Oc1ccccc1C(=O)Oc1ccccc1)c1ccco1 | 13%
CSCCC(NS(=O)(=O)c1ccc(Cl)cc1)C(=O)N1CCN(c2ccccc2)CC1 (centres undefined) | -4%
COc1ccc(CNc2nc(SCc3ccccc3Cl)nc3ccccc23)cc1 | -4%
Fc1ccc(Nc2ncnc3onc(-c4cccc(Cl)c4)c23)c(F)c1 | 2%
CCOC(=O)C1CCN(C(c2cc3ccc(C)cc3[nH]c2=O)c2nnnn2C2CCCCC2)CC1 (centres undefined) | -1%
CCCC1=C(C(=O)OCC)C(c2ccccc2OCC)NC(=O)N1C (centres undefined) | -11%
COC(=O)C1CCN(S(=O)(=O)c2ccc(OC)cc2)CC1 | 4%
COc1ccc(N(C)S(=O)(=O)c2ccc3c(c2)oc(=O)n3C)cc1 | -7%

4 compounds out of the list above, ordered by the number in VDR inhibitor, ascending.
structure	VDR inhibitor
CCCC1=C(C(=O)OCC)C(c2ccccc2OCC)NC(=O)N1C (centres undefined)	-11%
COc1ccc(N(C)S(=O)(=O)c2ccc3c(c2)oc(=O)n3C)cc1	-7%
Fc1ccc(Nc2ncnc3onc(-c4cccc(Cl)c4)c23)c(F)c1	2%
COC(=O)C1CCN(S(=O)(=O)c2ccc(OC)cc2)CC1	4%

Later entries:
Compound | VDR inhibitor
CCOC(=O)c1c(NC(=O)c2cc(-c3ccc(Cl)cc3)on2)sc(C)c1C | -16%
COc1ccc(NC(=O)CSc2nnc(Cc3cccn3C)n2CCc2ccccc2)cc1OC | 4%
CC(=O)c1ccc(S(=O)(=O)N(C)CC(=O)Nc2ccc(C)cc2)cc1 | -7%
O=C(Cc1ccc(Cl)cc1)Nc1ccc(C(=O)N2CCOCC2)cc1 | -9%
COc1ccc(CNc2nc3c(c(=O)[nH]c(=O)n3C)n2Cc2ccccc2)cc1 | 3%
O=C(Nc1ccc(S(=O)(=O)N2CCCCC2)cc1)C1CCCCC1 | 1%
CC(C)(C)OC(=O)N1CCN(C(=O)c2cccnc2Cl)CC1 | -1%
CCC(CC)C(=O)Nc1ccc(S(=O)(=O)N2CCC(c3nc4ccccc4s3)CC2)cc1 | 0%
COc1ccc(CCNC(=O)c2ccc(NC(=O)CC3SC(N4CCCCC4)=NC3=O)cc2)cc1OC (centres undefined) | 11%
O=C(CSc1ncnc2c1nnn2Cc1ccc(F)cc1)NC1CCCCC1 | 5%
Cc1ccc(C(=O)Nc2cc3cc(Cl)ccc3oc2=O)cc1 | -7%
COc1ccccc1-c1cc(C(=O)Nc2c(C)n(C)n(-c3ccccc3)c2=O)no1 | 12%
O=C(NNC1=C(C(=O)C(F)(F)F)CCC1)c1ccccc1O | -4%
O=C(NCCC1=CCCCC1)C1CCN(C(=O)Cc2ccccc2)CC1 | -18%
O=C(NCc1ccc(F)cc1)C1CCC(CNc2c(N3CCCCC3)c(=O)c2=O)CC1 (centres undefined) | -7%
O=Cc1cn(CC(=O)Nc2ccccc2)c2ccccc12 | -7%

4 entries from above, with values ahead of the structure:
VDR inhibitor,canonical_smiles
-4%,O=C(NNC1=C(C(=O)C(F)(F)F)CCC1)c1ccccc1O
-18%,O=C(NCCC1=CCCCC1)C1CCN(C(=O)Cc2ccccc2)CC1
-7%,O=C(NCc1ccc(F)cc1)C1CCC(CNc2c(N3CCCCC3)c(=O)c2=O)CC1 (centres undefined)
-7%,O=Cc1cn(CC(=O)Nc2ccccc2)c2ccccc12
